Compound activity from PubChem.
TRPV1 potentiator: enhances activation of the human vanilloid receptor TRPV1; Q8NER1; TRPV1-expressing cells, Fluo-8 calcium influx, capsaicin EC20 potentiation; host cell line not named in the record; control for the full effect not named in the record; potentiation, % at 8.33 µM; actives 0.02% (n = 320,000); active means potentiation above 80%; inconclusive means 30% to 80%; inactive means below 30%; note: 0% is about no effect
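Cells expressing TRPV1 were dye-loaded with Fluo-8 and read kinetically: 10 s baseline, 3 min after compound (agonist portion), then 2 min after EC20 capsaicin (allosteric enhancer portion). Calcium-bound dye fluorescence at 480/520 nm.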
ClpP mod: qHTS Assay for Activators of ClpP; Potency, µM (highest dose often 57.5 µM), for inactives: at the top dose activity change, negative = active; purified B. subtilis ClpP, FRET peptide cleavage, 20 min; ATP-dependent Clp protease proteolytic subunit (Bacillus subtilis (strain 168)), P80244; actives 1.9% (n = 340,000); active = well fitted falling curve with a large enough effect; inconclusive = small, poorly fitted or top-dose-only effect; inactive = no such curve, though single readings can be large or run the other way; note: potency is the fitted concentration of half-maximal effect; the source files actives as falling curves though it sought activators and does not explain the sign; nearly all actives have a fitted effect of over 65% in size; many hits overshoot -100%
Target sequence (P80244 whole entry, looked up): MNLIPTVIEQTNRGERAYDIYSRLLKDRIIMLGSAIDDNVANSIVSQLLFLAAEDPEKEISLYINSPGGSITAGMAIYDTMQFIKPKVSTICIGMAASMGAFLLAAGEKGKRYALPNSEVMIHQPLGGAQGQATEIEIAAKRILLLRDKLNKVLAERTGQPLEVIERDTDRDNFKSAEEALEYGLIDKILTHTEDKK
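ClpP 10 microg/mL final, pH 8 Tris/KCl buffer with BSA, glycerol, Tween-20; compound pinned in; FRET-FV substrate; RT 20 min; Ex320/Em430; ΔFRET vs ADEP 5.8 microM, DMSO, no enzyme.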
Menin MLL FP FL: inhibitors of human menin-MLL interaction, wild-type MLL peptide; Fluorescence polarization, fluorescein-MLL peptide displacement from menin; 290,000 tested, under 10 active; FP activity change, % at 61.4 µM; inconclusive = falling polarisation curve, or a change in total fluorescence; inactive = total fluorescence flat and polarisation flat or rising; no compound was filed as active; the % refers to the polarisation; negative = inhibition;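 note: % of control where 0% means no effect; inhibitors lower the polarisation; unlabelled MLL peptide was the positive control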
D2 PAM: positive allosteric modulators of human D2 dopamine receptor; P14416; DiscoveRx D2 beta-arrestin cells, luminescence, 90 min; 100% = 57 uM dopamine signal; potentiation, % (no concentration beside the values); actives 0.23% (n = 360,000); AID 624464; active = potentiation of 50% or more; inconclusive = 30% to 50%; inactive = 30% or less;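 note: compound concentration not given in the record; tested on top of an EC20 dose of dopamine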
Target sequence (P14416 whole entry, looked up): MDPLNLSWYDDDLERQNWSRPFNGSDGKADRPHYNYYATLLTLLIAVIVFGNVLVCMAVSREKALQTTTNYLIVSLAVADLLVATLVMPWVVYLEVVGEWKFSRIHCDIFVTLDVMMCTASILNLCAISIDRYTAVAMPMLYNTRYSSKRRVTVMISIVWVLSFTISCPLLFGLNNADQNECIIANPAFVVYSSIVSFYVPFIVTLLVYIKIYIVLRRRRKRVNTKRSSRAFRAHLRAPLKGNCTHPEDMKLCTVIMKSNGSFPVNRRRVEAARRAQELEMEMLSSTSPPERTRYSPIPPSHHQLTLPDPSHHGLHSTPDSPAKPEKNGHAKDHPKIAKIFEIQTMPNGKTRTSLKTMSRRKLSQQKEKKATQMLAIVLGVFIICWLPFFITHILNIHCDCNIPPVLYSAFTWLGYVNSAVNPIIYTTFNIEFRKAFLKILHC
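PathHunter D2 cells, attached overnight at 37 deg C, received compound in DMSO plus dopamine at EC20 (50 nM final) for 90 min at 37 deg C. Beta-arrestin recruitment was read as luminescence after 1 h with detection reagent at ambient temperature.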
Sfp inh: blocks B. subtilis Sfp PPTase activity | AID 1490 | Potency, µM, inactives show max response, negative = inhibition, hits mostly inhibitors | Q9F4F7 | Biochemical Sfp PPTase activity, qHTS | actives 3.5% (n = 310,000); active = well fitted inhibition curve with a large enough effect; inconclusive = small, poorly fitted or top-dose-only effect, or another doubt; inactive = no such curve, though single readings can be large or run the other way;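 note: the enzyme is Sfp with the accession as filed and its product quenches rhodamine fluorescence; potency is the fitted concentration of half-maximal effect; 0% = enzyme reaction without inhibitor and -100% = no enzyme wells; top concentration of the series not given in the record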
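With Hepes-Na pH 7.6 buffer containing 10 mM MgCl2, Sfp (15 nM) modified BHQ-2-YbbR (12.5 uM) using rhodamine-CoA (5 uM). Two reads 30 minutes apart at 525/598 nm yielded each well's rate.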
gsp antagonist: antagonizes gsp, the McCune-Albright syndrome mutation | Potency, µM (titrated, usually from 76.9 µM), inactives show at the highest dose activity change, negative = inhibition, usual class: inhibitors | actives 0.4% (n = 340,000) | gsp-mutant cells, cAMP HTRF, 30 min; control for the full effect not named in the record | AID 624288; active = falling curve of any shape with a large fitted effect; inconclusive = falling curve, mostly with a smaller effect; inactive = flat or rising curve; cell line not stated here;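 note: intracellular cAMP measured with PDE inhibitor Ro 20-1724 present during compound exposure; potency is the fitted concentration of half-maximal effect; % is set by controls: 0 for no effect and ±100 for the full control effect; nearly all actives have a fitted effect of over 65% in size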
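HTRF cAMP read-out (cAMP-d2 plus anti-cAMP antibody-K in lysis buffer, 30 min RT). Before lysis, cells are exposed to compounds with […] for 30 min at 37C in DPBS containing Ca/Mg, BSA and Tween 20.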
gsp agonist: activates gsp, the McCune-Albright syndrome mutation | gsp mutant cells, cAMP HTRF, 30 min; control for the full effect not named in the record | Potency, µM (titrated, usually from 76.9 µM), without a hit: at the top dose activation (cAMP increase), most hits filed as activators | actives 0.13% (n = 340,000); active = well fitted activation curve with a large enough effect; inconclusive = small, poorly fitted or top-dose-only effect, or another doubt; inactive = no such curve, though single readings can be large or run the other way; cell line not stated here;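 note: phosphodiesterase inhibitor Ro 20-1724 added with compounds to block cAMP breakdown; potency is the fitted concentration of half-maximal effect; nearly all actives have a fitted effect of over 60% in size; about a fifth of the inactives were tested at one dose only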
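Cells stably selected in G418 were plated at 2000/well, grown 16-24 hr, then given compounds in DMSO with the PDE inhibitor […] (300 uM solution added) for 30 min at 37C; cAMP was read by HTRF.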
* marks the source's active call; other numbers are inactive results; ? = inconclusive; nt = no result given; [ ] = remark or other dose.

SMILES | TRPV1 potentiator | ClpP mod | Menin MLL FP FL | D2 PAM | Sfp inh | gsp antagonist | gsp agonist
COC(CNC(=O)C1CCN(S(=O)(=O)c2ccc3nc4c(c(C(=O)O)c3c2)CC(C)CC4)CC1)OC (stereo unspecified) | -8 | -8.0% | ? | -2 | 17% | -1% | 23%
O=[N+]([O-])c1cccnc1SCc1c(F)cccc1Cl | 0 | nt | -1.9 | 5 | 23% | -11% | ?
CCN(CC)c1nc(N2CCN(CCO)CC2)nc2ccccc12 | 0 | -4.3% | -1.3 | -45 | 7% | 0% | -3%
Cc1ccc(S(=O)(=O)N(C)c2ccc(NS(C)(=O)=O)cc2)cc1 | -10 | -1.2% | -1.2 | -8 | -4% | -3% | 9%
COc1ccc(N=Cc2cc(Cl)ccc2O)cc1Cl | -1 | nt | 9.3 | 2 | ? | 3% | -18%
CCC(C(=O)Nc1cc(C(=O)O)ccc1C)c1ccccc1 (stereo unspecified) | 0 | nt | 0.0 | 3 | 26% | -2% | 2%
O=C(COc1ccc(Cl)cc1)Nc1ccccc1C(=O)NCc1ccco1 | 2 | -18% | 2.0 | -4 | -2% | 4% | 1%
CCN1C(=O)/C(=C2/C=Cc3ccccc3N2CC)SC1=S | -32 | 0.4% | 14 | -10 | -15% | ? | -3%
CCCOc1ccc(C2c3c(oc4cc(C)c(C)cc4c3=O)C(=O)N2CCCN(C)C)cc1OCC (stereo unspecified) | -10 | -0.1% | -2.0 | 1 | -6% | 13% | -20%
CC(C)(Oc1ccc(Cl)cc1)C(=O)NCC1CCCO1 (stereo unspecified) | -21 | nt | nt | -7 | nt | 14% | -12%[15.4 µM]
O=C(O)CNC(=O)/C=C/c1c(Cl)cccc1Cl | 26 | 0.0% | 3.7 | -12 | 13% | 4% | 18%
Cc1ccc(C(=O)N2[C@@H]3CN(C)C(=O)[C@@]2(C)[C@H]2C(=O)N(C)C(=O)[C@@H]32)cc1 | nt | -0.1% | nt | -7 | nt | -6% | nt
COC(=O)C1CCN(C(=O)c2ccc(Cl)c(S(=O)(=O)NCc3cccnc3)c2)CC1 | -4 | -0.8% | 4.2 | -16 | 15% | 8% | -11%
CN1CCN(c2ccc(-c3ccc4ccccc4n3)cc2)CC1 | 3 | nt | 0.4 | -2 | 6% | 9% | 1%[15.4 µM]
CCOC(=O)N1CCN(S(=O)(=O)c2cc(OCC(=O)NC3CCCCC3)c(C)cc2Cl)CC1 | -7 | -3.2% | 4.5 | 0 | 9% | 3% | -22%
O=C1CSCc2nc3ccccc3n21 | nt | 1.9% | nt | -15 | nt | 3% | 18%
Cc1ccc(NC(=O)C2CCN(S(C)(=O)=O)CC2)cc1 | 8 | 1.7% | 2.5 | -5 | 21% | 8% | 5%
C=CCn1c(SCC(=O)Nc2nc(C)cs2)nnc1C(CO)NC(=O)c1ccccc1 (stereo unspecified) | -4 | -7.3% | 8.2 | -8 | 3% | 3% | 9%
CC(C)C(C(=O)Nc1ccc2c(c1)OCO2)N1C(=O)c2ccccc2C1=O (stereo unspecified) | 3 | 0.9% | 5.3 | 2 | -4% | 2% | -45%
COc1ccc(Cl)cc1NC(=O)CN1CCC(n2nnc3cc(C)ccc32)CC1 | -2 | 0.4% | 5.1 | -29 | 11% | ? | -13%
CCN(CC)c1nc2c(c(=O)[nH]c(=O)n2C)n1CCCc1ccccc1 | 7 | nt | 3.9 | -7 | 19% | 16% | -20%
Cc1nn(-c2ccccc2)nc1C(=O)NNC(=O)c1cccc2ccccc12 | ? | -3.6% | 4.5 | -10 | 24% | -16% | -25%
COc1cc(OC)c(NC(=O)C(=O)CC(=O)c2ccc(C)cc2C)cc1Cl | 5 | nt | ? | -6 | 13% | -9% | -13%[15.4 µM]
CCn1cc(C(=O)O)c(=O)c2cnc(N3CCN(C(=S)NC(=O)c4ccc(F)c(F)c4)CC3)nc21 | 5 | nt | 0.9 | 3 | 4% | -10% | ?
COc1ccc(NC(=O)CCCN2C(=O)C(c3ccccc3)Oc3cccnc32)cc1 (stereo unspecified) | -6 | 0.3% | 0.0 | 0 | 2% | 8% | 17%
Cc1cccc(CSc2nnc(N)n2-c2ccccc2)c1 | 24 | -0.4% | -1.5 | -9 | 17% | 4% | 14%
O=C(Nc1nccs1)C(F)(F)C(F)(F)C(F)(F)C(=O)Nc1nccs1 | -1 | nt | 46[activator] | -1 | -5% | -10% | -20%[15.4 µM]
CC1CCCCN1CC(=O)Nc1sc2c(c1C#N)CCC2 (stereo unspecified) | -9 | 1.7% | -0.7 | -20 | -6% | 13% | -31%[inhibitor]
COC(=O)c1ccc(C)c(NC(=O)CCSc2ccccc2)c1 | ? | 0.9% | 4.8 | -11 | -2% | -11% | ?
Cc1c(NC(=O)C2CCCN2S(=O)(=O)c2ccccc2)c(=O)n(-c2ccccc2)n1C (stereo unspecified) | 19 | 4.0% | 4.3 | 1 | 17% | 10% | 4%
CCOC(=O)C1CCN(C(=O)CCCn2nc(CC)n3c(cc4occc43)c2=O)CC1 | 9 | -0.4% | -4.0 | -5 | 21% | 2% | ?
CS(=O)(=O)N1CCC(C(=O)Nc2cccc(Cl)c2)CC1 | 1 | nt | 3.3 | -13 | -7% | 6% | -1%[15.4 µM]
NC(=O)CC(NC(=O)c1ccccc1)c1ccc(NC2CCCCC2)c([N+](=O)[O-])c1 (stereo unspecified) | 4 | -3.0% | 0.6 | -13 | 2% | 0% | nt
Cc1sc2c3ccsc3ccc2[n+]1C | -17 | nt | 12 | -11 | 3.5µM* | nt | 1%[15.4 µM]
CN(CC(=O)Nc1ccccc1Br)C(=O)CN1CCN(Cc2cccc(Cl)c2)CC1 | nt | -3.7% | nt | -36 | nt | -3% | -3%
O=C(CNC(=O)c1cncc(Br)c1)Nc1ccc(F)c(F)c1F | 9 | nt | nt | 3 | 14% | 10% | -7%[15.4 µM]

Reformatted field by field: part of the list above.
NC(=O)CC(NC(=O)c1ccccc1)c1ccc(NC2CCCCC2)c([N+](=O)[O-])c1 (stereo unspecified)
  TRPV1 potentiator: 4
  ClpP mod: -3.0%
  Menin MLL FP FL: 0.6
  D2 PAM: -13
  Sfp inh: 2%
  gsp antagonist: 0%
  gsp agonist: nt
Cc1sc2c3ccsc3ccc2[n+]1C
  TRPV1 potentiator: -17
  ClpP mod: nt
  Menin MLL FP FL: 12
  D2 PAM: -11
  Sfp inh: 3.5µM*
  gsp antagonist: nt
  gsp agonist: 1%[15.4 µM]

Next structures follow:
SMILES | TRPV1 potentiator | ClpP mod | Menin MLL FP FL | D2 PAM | Sfp inh | gsp antagonist | gsp agonist
O=c1c2nnn(-c3ccccc3)c2ncn1C/C=C/c1ccccc1 | 4 | -3.8% | 0.4 | 4 | 11% | -5% | -32%[inhibitor]
CCN(CC)c1ccc(/C=N/N(c2ccccc2)c2ccccc2)c(O)c1 | 8 | -3.8% | 8.4 | -21 | -6% | -8% | -37%[inhibitor]
CCOC(=O)c1ccc(NC(=O)CN2C(=O)CSC(C)C2=O)cc1 (stereo unspecified) | 17 | 3.1% | -2.6 | -2 | -2% | -2% | 19%
COCCCNc1ncnc2c1sc1nc(-c3ccco3)c3c(c12)CC(C)(C)OC3 | -20 | -1.4% | 5.3 | 0 | ? | 8% | 2%[15.4 µM]
C(=C\c1nc(-c2ccccc2)no1)/c1ccccc1 | -1 | 0.4% | 0.6 | 4 | -24% | 9% | -30%
C/C(Cl)=C/CSc1nc2c(c(=O)[nH]c(=O)n2C)n1C(C)C | -4 | 1.2% | 4.0 | -5 | -5% | 6%[15.4 µM] | 2%
COCCN(C(=O)Cn1nnc2ccccc21)C(C(=O)NC1CCCC1)c1ccc(OC)cc1OC (stereo unspecified) | -18 | 0.7% | -0.5 | -16 | 17% | -6% | 5%
O=C(C[n+]1cc(-c2ccccc2)n2c1CCC2)N1c2ccccc2Sc2ccccc21 | 9 | 0.9% | 0.2 | -24 | -22% | 3% | 27%
O=C(O)C(CCCCN1C(=O)C2C3C=CC(C3)C2C1=O)N1C(=O)C2C3C=CC(C3)C2C1=O (stereo unspecified) | -1 | -2.1% | 0.1 | 1 | 2% | 13% | -4%
O=C(c1ccccc1)c1c[nH]c(C(=O)NNc2ccccc2)c1 | 3 | nt | 1.3 | -5 | 17% | -28% | -10%[15.4 µM]
O=C(O)C(Cc1ccccc1N(CCO)CCO)N1C(=O)c2ccccc2C1=O (stereo unspecified) | nt | nt | nt | -8 | nt | 7% | 8%
COc1ccc(-c2cc(-c3n[nH]c(=S)n3-c3ccccc3OC)[nH]n2)cc1 | 15 | -2.3% | nt | -15 | ? | -8% | -8%
COc1ccc(C(=O)NC2CCN(CC(=O)Nc3cccc(C)c3)CC2)cc1OC | 7 | 0.1% | 1.6 | 7 | 7% | -7% | 18%
O=C(CCc1ccc(S(=O)(=O)NC2CCCCC2)cc1)NCc1cccnc1 | -14 | nt | -5.4 | -9 | 19% | -2% | -1%
Cc1ccc(CN(Cc2cccnc2)C(=S)Nc2cc(Cl)ccc2C)cc1 | 3 | -9.4% | -2.5 | -11 | -20% | -28% | -1%[15.4 µM]
CCOc1ccc(C2C(C(=O)c3cccs3)=C(O)C(=O)N2CCN2CCOCC2)cc1 (stereo unspecified) | -15 | 0.3% | 4.9 | -9 | -3% | -6% | 13%
Oc1ccc(C2C[C@H]3CC[C@@H]2C3)cc1O (stereo partly specified) | 10 | 2.2% | ? | 19 | 22µM* | 5% | -3%[15.4 µM]
COc1ccc(/C=N\NC(=O)C2CCCC2)cc1Br | 9 | 0.6% | nt | 1 | 13% | -2% | -2%
COc1cc2nc3n(c(=O)c2cc1OC)-c1ncccc1C(=O)NC3Cc1ccccc1 (stereo unspecified) | nt | 3.2% | nt | -5 | nt | nt | -36%[inhibitor]
O=C(C1Cc2ccccc2CN1S(=O)(=O)c1cccs1)N1CCCCC1 (stereo unspecified) | 0 | 0.2% | 0.3 | -1 | 2% | 3% | -48%[inhibitor]
O=C1COc2ccc(C(=O)CSc3nnc(-c4cccs4)n3Cc3ccccc3)cc2N1 | -10 | -1.8% | 0.8 | -7 | -10% | -23% | -59%[inhibitor]
COc1ccc(CNC(=O)C2=CC(c3ccc(OC)cc3)=NS(=O)(=O)N2C)cc1 | 0 | -4.2% | -0.2 | -13 | 16% | -16% | ?
